Compound activity deposited in PubChem by National Center for Advancing Translational Sciences (NCATS).
VDR inhibitor = inhibitors of human vitamin D receptor; P11473; Potency, µM, for the others: max response, negative = inhibition, most hits filed as inhibitors; AID 504847; VDR-SRC2-3 peptide fluorescence polarization, 2 h; 400,000 compounds, 0.93% hits; active = well fitted inhibition curve with a large enough effect; inconclusive = small, poorly fitted or top-dose-only effect, or another doubt; inactive = no such curve, though single readings can be large or run the other way; note: series mostly up to about 120 µM
Target sequence (P11473 whole entry, looked up): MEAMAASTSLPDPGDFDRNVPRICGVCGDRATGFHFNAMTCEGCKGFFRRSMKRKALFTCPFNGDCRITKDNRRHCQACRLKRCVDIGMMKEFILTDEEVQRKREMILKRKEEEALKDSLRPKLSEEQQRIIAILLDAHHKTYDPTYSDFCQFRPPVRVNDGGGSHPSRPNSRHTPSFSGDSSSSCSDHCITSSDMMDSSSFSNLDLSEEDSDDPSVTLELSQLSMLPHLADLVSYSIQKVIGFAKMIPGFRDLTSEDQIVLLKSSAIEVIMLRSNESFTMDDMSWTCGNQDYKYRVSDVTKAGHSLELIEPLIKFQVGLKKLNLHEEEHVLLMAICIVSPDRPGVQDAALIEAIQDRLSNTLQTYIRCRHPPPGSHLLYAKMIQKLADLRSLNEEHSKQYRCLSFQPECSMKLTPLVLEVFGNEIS
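VDR–SRC2-3 interaction, FP format. Cmpds 23 nl via pintool, brief spin, 2 h ambient incubation.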
Numbers without * were called inactive; ? = inconclusive; & = joins results of further samples. % is set by controls: 0 for no effect and ±100 for the full control effect; potency is the fitted concentration of half-maximal effect. An excerpt, so the mix of outcomes need not match the whole.

SMILES	VDR inhibitor
O=C(CN1C(=O)NC(Cc2c[nH]c3ccccc23)C1=O)NCCc1ccccc1 (configuration not stated)	-16%
CCS(=O)(=O)c1ccc(O)c(NC(=O)COc2ccc(Br)cc2)c1	4%
CC(=O)c1ccc(NC(=O)C(C)OC(=O)CCCN=C2NS(=O)(=O)c3ccccc32)cc1 (configuration not stated)	-6%
O=C(Cn1cnc2onc(-c3ccc(Cl)cc3)c2c1=O)Nc1ccc(F)cc1	13%
CCCC(=O)c1ccc(OC(=O)c2c(-c3ccccc3Cl)noc2C)cc1	15%
Cc1c(NC(=O)CSCc2c(F)cccc2Cl)c(=O)n(-c2ccccc2)n1C	17%
CCN1CCCC1CNCc1cccc(OC)c1OCc1ccc(F)cc1 (configuration not stated)	-18%
O=C(Nc1cccnc1)c1cc(-c2cccnc2)nc2ccc(Br)cc12	10%
O=C1CCCN1CC(CN1CCOCC1)Sc1nnnn1-c1ccccc1 (configuration not stated)	0%&-3%
CCCCN(CC)C(=O)Cc1c(C(=O)O)[nH]c2ccc(Cl)cc12	-12%
O=S(=O)(Nc1cccc(-c2ccc(N3CCCCC3)nn2)c1)c1ccc(Cl)s1	10%
CC(NC(=O)/C(C#N)=C/c1ccco1)c1ccccc1 (configuration not stated)	-12%
COc1ccc(NC(=O)CN(C)C(=O)c2ccc(N3CCCCCC3)c([N+](=O)[O-])c2)cc1	-8%
Cc1cccn2c(=O)c(/C=C(\C#N)C(N)=O)c(N3CCN(Cc4ccc5c(c4)OCO5)CC3)nc12	-20%
CC(C)(Oc1ccc(Cl)cc1)C(=O)Nc1cccc(S(=O)(=O)NC2=NCCC2)c1	-1%
COc1cc(CC(=O)OCC(=O)N2C(C)CCCC2C)cc(OC)c1OC (configuration not stated)	14%
Cc1ccccc1OCCn1ccnc1	-6%
Cc1nn(-c2ccccc2)c2c1C(c1ccc(F)cc1)C(C#N)=C(N)O2 (configuration not stated)	?
Cc1ccc(C)c(S(=O)(=O)Nc2ccc(S(=O)(=O)Nc3onc(C)c3C)cc2)c1	-1%
CC(=O)NCCNc1ncnc2ccc(-c3c(C)noc3C)cc12	-11%
Cc1ccc(CNCc2cccn2-c2nnc(N3CCCC3)s2)cc1	6%
O=C(CSc1nnc(-c2ccccc2O)o1)N1CCCCC1	2%
Cc1cccc(-c2nc(CSCC(=O)N3CCN(c4ccccn4)CC3)c(C)o2)c1	1%
CC(Oc1ccccc1F)C(=O)NNC(=O)CCNC(=O)c1ccccc1Cl (configuration not stated)	14%
CSc1ccccc1OCc1cc(C(=O)N2CCCC(C)C2)no1 (configuration not stated)	-7%
CC(C)c1ccc(NS(=O)(=O)c2ccc3[nH]c(=O)ccc3c2)cc1	3%
COCCNC(=O)C(=O)NNC(=O)COc1ccc(OC)cc1	-1%
CCOC(=O)CSc1nc(-c2ccc(OC)cc2)cc(C(F)(F)F)c1C#N	3%
CS(=O)(=O)CCNCc1nc(-c2ccc3ncnc(Nc4ccc(OCc5cccc(F)c5)c(Cl)c4)c3c2)cs1	5%
CCOc1ccc(NC(=O)C/C(C)=N/NC(=O)c2cnccn2)cc1	6%
COc1cc(C(=O)NC(C)c2ccc3ccccc3c2)cc(Cl)c1O (configuration not stated)	-18%
Cc1ccccc1C(=O)Oc1ccc(Br)cc1C(=S)N1CCCC1	-1%
CC(=O)N1CCSc2ccc(S(=O)(=O)Nc3cccc(C)c3)cc21	-2%
Cc1nc(CSc2nnc(Nc3cccc(C)c3C)s2)cs1	-1%
COc1cccc(/C=C/C(=C2/C(=O)N(c3ccccc3)N=C2C)c2ccc(C)cc2)c1OC	-3%
COC(=O)c1c(C)cc(O)c(C=O)c1O	-26%
O=c1c(Oc2ccccc2)coc2cc(O)cc(O)c12	-1%
O=C(CSc1nc(-c2cccs2)cc(C(F)(F)F)n1)NCc1ccco1	13%
C[C@@H]1COC(=O)[C@@H](Cc2ccc(F)cc2)C/C=C\C[C@@H](CC(=O)N(CCO)Cc2ccccc2)C(=O)N1	-11%
Cc1ccc(NC(=O)c2ccccc2)cc1C	9%
COc1ccc(/C=C/C(=O)OC(C)CN2CCCCC2)cc1 (configuration not stated)	4%
Nc1nnc(SCC(=O)OCC(=O)Nc2ccc(Br)cc2)s1	-7%
COc1cc([N+](=O)[O-])cc(/C=N/NC(=O)c2cc(C)nc3ccccc23)c1O	0%
CCOC(=O)C1CCCN(C(=O)C2CC(=O)N(c3ccc(C)cc3)C2)C1 (configuration not stated)	4%
COc1ccc(Cl)cc1NC(=O)c1cnccn1	-6%
O=C(NCCc1ccccc1)c1nn(-c2ccc(F)cc2)nc1CO	9%
CC(C)CC(=O)Nc1ccc(C(=O)NNC(=O)C(c2ccccc2)c2ccccc2)cc1	-7%
Cc1c(NS(=O)(=O)c2ccc3nc(COc4ccccc4Cl)[nH]c3c2)c(=O)n(-c2ccccc2)n1C	-16%
COc1ccc(NC(=O)c2oc3ccc(S(=O)(=O)N4CCOCC4)cc3c2C)cc1	?
CCCc1ccc(OCc2nc(-c3ccc(NC(=O)c4cccs4)cc3)no2)cc1	2%
Cc1c(Cl)cnc(NC(=O)CSc2n[nH]c(N)n2)c1Cl	-8%
O=C(NC1CCCCCC1)c1ccc(N2CCCC2=O)cc1	-4%
COc1ccc(OCc2nc(C#N)c(NCc3ccccc3Cl)o2)cc1	-15%
O=C(Nc1ccc(CN2CCCCC2)cc1)c1cccc(Br)c1	-6%
COc1cccc(C(=O)O/N=C(\N)CS(=O)(=O)c2ccccc2)c1	5%
Cc1cc(C)nc(Nc2ccccc2F)n1	-18%
Nc1nnnn1/N=C/c1ccc(Cl)cc1	-18%
CSc1ccc(/C=N\NC(=O)COc2ccc(Cl)cc2Br)cc1	4%
CC(=O)NCCC(=O)N1CCCC(N2CCN(c3cccc(Cl)c3)CC2)C1 (configuration not stated)	?
CCN(CC)C(=O)CSc1nnc(NC(=O)CCc2ccccc2)s1	6%
Other results
SMILES	VDR inhibitor
Cc1ccc(-c2c(C#N)c(N)nc3c2CCCC3)o1	2%
Oc1ccc2c(c1)OCC1c3cc4c(cc3OC21)OCO4 (configuration not stated)	-5%
Cc1ccc(NC(=O)CSc2nnc(-c3ccccn3)n2N)c(Br)c1	9%
COc1ccc(C(=O)NCCCN2CCOCC2)cc1Br	-4%
COc1cccc(NC(=O)C(=O)N/N=C(\C)CC(=O)Nc2ccc(NC(C)=O)cc2)c1	6%
CC1CCCN(C(=O)CSCC(=O)N=c2sc3ccccc3n2C)C1 (configuration not stated)	-2%
CCc1ccc(NC(=O)CSc2nnc(-c3cccs3)n2CC)cc1	-3%
CCC(=O)N1CCc2cc(S(=O)(=O)NC(Cc3ccccc3)C(=O)Nc3ccc(C)cc3)ccc21 (configuration not stated)	-13%
O=C(O)C(Cc1ccccc1)Nc1ccc([N+](=O)[O-])cc1[N+](=O)[O-] (configuration not stated)	-6%
Cc1cc(Oc2ccccc2F)nc(NCc2ccccc2)n1	-8%
Cc1ccc(C(=O)N/C(=C\c2ccc(-c3ccccc3[N+](=O)[O-])o2)C(=O)NCCCN2CCOCC2)cc1	?
CCN1CCN(c2cc(C)c3cc(NC(=S)N4CCN(c5ccccc5F)CC4)ccc3n2)CC1	14%

Some of these compounds in order of SMILES length, smallest number first.
SMILES	VDR inhibitor
COc1ccc(C(=O)NCCCN2CCOCC2)cc1Br	-4%
Cc1ccc(-c2c(C#N)c(N)nc3c2CCCC3)o1	2%
CCC(=O)N1CCc2cc(S(=O)(=O)NC(Cc3ccccc3)C(=O)Nc3ccc(C)cc3)ccc21 (configuration not stated)	-13%

Following part:
SMILES	VDR inhibitor
COc1ccc(-n2c(SCC(=O)O)nnc2-c2ccc(NC(=O)c3ccccc3)cc2)cc1	-3%
Cc1ccccc1-n1c(C)nnc1SCC(=O)N1CCc2ccccc2C1	5%
N#CCC(=O)NCCCOC(=O)Nc1ccc(Cl)c(Cl)c1	-12%
Cn1nnnc1SCc1cn2cccnc2n1	5%
CCNC(=O)c1ccccc1-c1nc(-c2ccccc2Cl)no1	-27%
CCC1Oc2ccccc2N(CC(=O)NC2CC2)C1=O (configuration not stated)	15%
O=C(O)c1ccc(/C=N/NC(=O)c2cc3c(ccc4ccccc43)o2)cc1	-11%
Cn1c(SCc2nc3ccccc3[nH]2)nnc1-c1cccs1	-3%
COc1ccc(CNC(=O)C2COc3ccccc3O2)c(OC)c1 (configuration not stated)	0%
O=C(COc1ccccc1[N+](=O)[O-])NCc1cccnc1	-4%
Cc1c(C(=O)O)cccc1-c1ccc(/C=N/Nc2ccc(Br)cc2)o1	?
CCOc1ccc(NC(=O)c2ccc(N)cc2)cc1	-3%
O=C(Cn1cnc([N+](=O)[O-])c1)NCCc1ccccc1	25%
CCOc1ccc(NC(=O)CCS(=O)(=O)c2ccc3c(c2)CCCN3C(C)=O)cc1	-11%
O=C(CSc1ccc(-c2nc3ccccc3[nH]2)cn1)Nc1ccc(S(=O)(=O)NC2CC2)cc1	-8%
C[C@H](NC(=O)c1ccccc1)C(=O)OCC(=O)c1c[nH]c2ccccc12	-10%
CCCN1C(=O)/C(=C/c2c(N3CCNC(=O)C3CC(=O)OCC)nc3c(C)cccn3c2=O)SC1=S (configuration not stated)	0%
Cc1ccccc1OCC(=O)N1CCN(C(=O)COc2ccccc2C)CC1	17%
CCCCn1c(N)c(N(CCOC)C(=O)c2ccc(Cl)c(S(=O)(=O)N3CCCCC3)c2)c(=O)[nH]c1=O	-4%
Cc1c(Cl)cnc(NC(=O)COC(=O)Cc2coc3ccc4ccccc4c23)c1Cl	-4%
CCN1C(=O)C(O)(C2COC(C)(C)CC2=O)c2cc(Br)ccc21 (configuration not stated)	-3%
CCOC(=O)c1[nH]c(C(=O)O)c(CCN(CC)CC)c1C	5%
NC(=O)NC(=O)COC(=O)CCCc1c[nH]c2ccccc12	-6%
O=C(Cc1ccc(F)cc1)N1CCN(c2ccc(F)cc2)CC1	6%
N#Cc1ccccc1-n1c(N)c(C(=O)N2CCCC2)sc1=S	50µM*
O=C(NCCO)c1nc2ccccc2s1	-3%
CCCCn1c(=O)n(CC2CCC(C(=O)NCCCOC)CC2)c(=O)c2sccc21 (configuration not stated)	9%
COc1ccc(NC(=O)Nc2ccccc2OC)cc1	9%
Cc1cn(C2C=CC(CO)O2)c(=O)[nH]c1=O (configuration not stated)	-9%
Cc1ccc(NC(=O)c2ccc(CSc3nnc(C)s3)cc2)c(C)c1	14%
Cc1cc(C)c2oc(C(=O)Nc3ccc(S(=O)(=O)N4CCCC(C)C4)cc3)cc(=O)c2c1 (configuration not stated)	7%
Cc1ccc(NC(=O)CN(C)C(=O)c2sc3cc(Cl)ccc3c2Cl)cc1	-26%
Cc1[nH]nc(SCC(=O)NC2CCCC2)c1[N+](=O)[O-]	-13%
C=CCNC(=O)c1onc(CS(=O)(=O)c2cc(C)cc(C)c2)c1C(=O)NCC=C	0%
COc1cc(CN2CCCC(C(=O)Nc3cccc(-n4cccn4)c3)C2)ccc1F (configuration not stated)	16%
N/C(=N\OC(=O)COc1ccc(Cl)cc1Cl)c1ccccn1	-3%
CC(C)(C)NC(=O)Cn1nnc(-c2ccccc2Cl)n1	26%
Cn1nnnc1SCc1cc(=O)n2ccsc2n1	14%
COc1ccc(N(C(=O)C2CSC(=O)C2)C(C(=O)NC(C)(C)C)c2ccncc2)cc1 (configuration not stated)	-2%
NC(=O)CSc1nccn1Cc1ccc2c(c1)OCO2	0%
CCn1c(/C=C/N(C(C)=O)c2ccccc2)[n+](CC)c2ccc(Cl)cc21	-14%
Cc1ccc(C(c2sc3ncnn3c2O)N2CC(C)CC(C)C2)cc1 (configuration not stated)	10%
CC(C)N(C(=O)Cn1c(Cl)nc2ccccc21)C(C)C	5%
COc1ccc(-c2cc(C(=O)Nc3ccccc3N3CCOCC3)c3ccccc3n2)cc1OC	-1%
COc1ccc(S(=O)(=O)Nc2cccc(S(=O)(=O)N(C)C)c2)cc1[N+](=O)[O-]	-23%
C[C@H](CO)N1C[C@H](C)[C@@H](CN(C)CC2CC2)Oc2c(NS(=O)(=O)c3ccc(F)cc3)cccc2C1=O	-20%
C=CCNC(=S)NNC(=O)c1csc(CC)c1	3%
COc1ccc(OC)c2sc(NC(=O)C3=COCCO3)nc12	-1%
CC(NC(=O)c1ccc(F)cc1)c1ccc2c(c1)CCCC2 (configuration not stated)	5%
Cc1cc(C)nc(SCCCn2c(=O)[nH]c3ccccc32)n1	-8%

Structures from the list above that contain an NH in an aromatic ring, in the order listed:
SMILES	VDR inhibitor
O=C(CN1C(=O)NC(Cc2c[nH]c3ccccc23)C1=O)NCCc1ccccc1 (configuration not stated)	-16%
CCCCN(CC)C(=O)Cc1c(C(=O)O)[nH]c2ccc(Cl)cc12	-12%
CC(C)c1ccc(NS(=O)(=O)c2ccc3[nH]c(=O)ccc3c2)cc1	3%
Cc1c(NS(=O)(=O)c2ccc3nc(COc4ccccc4Cl)[nH]c3c2)c(=O)n(-c2ccccc2)n1C	-16%
Cc1c(Cl)cnc(NC(=O)CSc2n[nH]c(N)n2)c1Cl	-8%
Cn1c(SCc2nc3ccccc3[nH]2)nnc1-c1cccs1	-3%
O=C(CSc1ccc(-c2nc3ccccc3[nH]2)cn1)Nc1ccc(S(=O)(=O)NC2CC2)cc1	-8%
C[C@H](NC(=O)c1ccccc1)C(=O)OCC(=O)c1c[nH]c2ccccc12	-10%
CCCCn1c(N)c(N(CCOC)C(=O)c2ccc(Cl)c(S(=O)(=O)N3CCCCC3)c2)c(=O)[nH]c1=O	-4%
CCOC(=O)c1[nH]c(C(=O)O)c(CCN(CC)CC)c1C	5%
NC(=O)NC(=O)COC(=O)CCCc1c[nH]c2ccccc12	-6%
Cc1cn(C2C=CC(CO)O2)c(=O)[nH]c1=O (configuration not stated)	-9%
Cc1[nH]nc(SCC(=O)NC2CCCC2)c1[N+](=O)[O-]	-13%
Cc1cc(C)nc(SCCCn2c(=O)[nH]c3ccccc32)n1	-8%
